VACV mCherry inh: vaccinia inhibition (mCherry reporter) | Vaccinia virus mCherry reporter infection, fluorescence; about a quarter of the inactives have no number | Potency, µM (top dose mostly 36.5 µM), for inactives: top-dose activity change, negative = inhibition, hits mostly inhibitors | actives 0.63% (n = 310,000) | AID 720579; active = well fitted inhibition curve with a large enough effect; inconclusive = small, poorly fitted or top-dose-only effect; inactive = no such curve, though single readings can be large or run the other way; tested in A549 cells; further: nearly all actives have a fitted effect of over 35% in size; inactives centre near -10
Vaccinia Venus: inhibitors of vaccinia virus (Venus reporter); actives 0.46% (n = 330,000); Potency, µM (top dose mostly 36.5 µM), inactives show at the top dose activity change, negative = inhibition, usual class: inhibitors; Vaccinia virus Venus reporter expression, fluorescence; active means well fitted inhibition curve with a large enough effect; inconclusive means small, poorly fitted or top-dose-only effect; inactive means no such curve, though single readings can be large or run the other way; tested in A549 cells; further: nearly all actives have a fitted effect of over 30% in size; inactives centre near -10
* marks the source's active call; other numbers are inactive results; i = inactive; u = inconclusive; x = no result given; & = joins results of further samples; [ ] = remark or other dose. On the % scale 0 is the no-effect control and ±100 the full control effect; potency means the concentration at half of the fitted maximal effect.

The opening seven compounds, to show the layout:
canonical_smiles	Vaccinia Venus	VACV mCherry inh
O=C(Nc1ccc(F)cc1)C(CCc1ccccc1)N1CCN(c2cccc(C(F)(F)F)n2)CC1 (configuration not stated)	-29%	-22%
CCCCSc1nc(N)nc2c1ncn2C1OC(CO)C(O)C1O (configuration not stated)	-13%	-17%
CC(C)NC(=O)C1(C)CN(S(C)(=O)=O)CC(=O)N1C1CC1 (configuration not stated)	17%	-10%
CCC(C)(C)NC(=O)CN(Cc1cccs1)C(=O)CNS(=O)(=O)c1ccc(C)cc1	-6%	-14%
Cc1oc(-c2cccs2)nc1CN1CCN(C(C)C)C(CCO)C1 (configuration not stated)	-6%	i
CCOc1ccc(S(=O)(=O)NCc2ccc3c(c2)CCN3C(=O)c2ccc(C)cc2)cc1	-19%	-24%
c1ccc(C[C@H]2CNCCN2CCCCC2CCCCC2)cc1	u	u

Results, repeating the preview:
canonical_smiles	Vaccinia Venus	VACV mCherry inh
O=C(Nc1ccc(F)cc1)C(CCc1ccccc1)N1CCN(c2cccc(C(F)(F)F)n2)CC1 (configuration not stated)	-29%	-22%
CCCCSc1nc(N)nc2c1ncn2C1OC(CO)C(O)C1O (configuration not stated)	-13%	-17%
CC(C)NC(=O)C1(C)CN(S(C)(=O)=O)CC(=O)N1C1CC1 (configuration not stated)	17%	-10%
CCC(C)(C)NC(=O)CN(Cc1cccs1)C(=O)CNS(=O)(=O)c1ccc(C)cc1	-6%	-14%
Cc1oc(-c2cccs2)nc1CN1CCN(C(C)C)C(CCO)C1 (configuration not stated)	-6%	i
CCOc1ccc(S(=O)(=O)NCc2ccc3c(c2)CCN3C(=O)c2ccc(C)cc2)cc1	-19%	-24%
c1ccc(C[C@H]2CNCCN2CCCCC2CCCCC2)cc1	u	u
O=C(Cn1cccc1)N1CCc2ccccc21	-14%	i
COc1ccc(C2N=C(Nc3nc4ccccc4o3)NC3=C2C(=O)CC(C)(C)C3)cc1 (configuration not stated)	u	-29%
CCCCn1c(N)c(N(CCOC)C(=O)COC(=O)COc2ccc(CC)cc2)c(=O)[nH]c1=O	4%	-15%
c1ccc2cc(-c3cc4ccccn4c3)ccc2c1	-7%	-12%
O=C(COC(=O)c1nc(Cl)ccc1Cl)NCc1cccs1	-7%	-21%
COC(=O)C1=C(c2cccc(C#N)c2)C[C@@H]2CC[C@H]1N2C(=O)NCc1cc(C)oc1C(F)(F)F	-29%	-29%
O=C(COC(=O)CNC(=O)c1ccc(Cl)c([N+](=O)[O-])c1)NNC(=O)c1cccs1	-15%	-15%
O=c1c2oc3ccccc3c2n(Cc2ccc(Cl)cc2)c(=O)n1Cc1ccccc1	-2%	-8%
Cc1cc(C)c(S(C)(=O)=O)c(N(C)NC(=O)c2c(F)cccc2F)n1	2%	i
CNC(CC(C)C)C(=O)NC1C(=O)NC(CC(N)=O)C(=O)NC2C(=O)NC3C(=O)NC(C(=O)NC(C(=O)O)c4cc(O)cc(O)c4-c4cc3ccc4O)C(O)c3ccc(c(Cl)c3)Oc3cc2cc(c3OC2OC(CO)C(O)C(O)C2OC2CC(C)(N)C(O)C(C)O2)Oc2ccc(cc2Cl)C1O (configuration not stated)	-14%	0%
COc1cc(Nc2ncc3c(n2)CCN(Cc2ccc(OC(C)C)c(OC)c2)C3)cc(OC)c1	-15%	-25%
c1ccc(N2CCN(c3nc(-c4ccccn4)nc4ccccc34)CC2)cc1	u	u
COc1cc(/C=N/OCC(=O)NC2CCCCC2C)ccc1OCc1ccc(Cl)cc1 (configuration not stated)	-22%	0%

Continued:
canonical_smiles	Vaccinia Venus	VACV mCherry inh
CCC1(C)Cc2c(sc3[nH]c(=O)[nH]c(=O)c23)CS1 (configuration not stated)	5%	x
CCOC(=O)C1CCN(c2c(N3CCCC(C(=O)OCC)C3)c(=O)c2=O)CC1 (configuration not stated)	-1%	i
Cc1ccc(CN2CCc3nc(N4CCN(C)CC4)ncc3C2)s1	2%	1%
Nc1c(N(CCO)C(=O)C2CCCCC2)c(=O)[nH]c(=O)n1Cc1ccccc1	0%	-24%
Cc1cc2c(c(=O)o1)C(CC(C)C)C(C#N)=C(N)O2 (configuration not stated)	-20%	x
CC(CCc1ccccc1)NCC#N (configuration not stated)	-8%	-9%
COc1ccc(CCC(=O)NCc2nc3cccnc3n2Cc2ccc(F)cc2)cc1	-7%	-11%
O=S1(=O)CCN(Cc2ccc(Cl)c(C(F)(F)F)c2)CC1	0%	-1%
COc1ccccc1NC(=O)c1cnc2c(-c3ccccc3)c(C)nn2c1C	-1%	12%
CC(C)Cn1c(CCCNC(=O)c2ccc(F)cc2)nc2ccccc21	-7%	-19%
O=c1c2cccnc2n(Cc2ccccc2F)c(=O)n1Cc1ccccc1Cl	-6%	-17%
COc1ccc(NC(=O)CCCNC(=O)c2ccc(Cl)cc2)c(OC)c1	-4%	i
O=Cc1sc([O-])nc1-[n+]1ccc2ccccc2c1	-15%	-2%
Cc1nc2c(C(=O)NCCCN(CC(C)C)CC(C)C)cnn2c(C)c1Cc1c(F)cccc1Cl	-8%	-20%
CCC(CC)c1nnc(NC(=O)c2ccc(N3CCCCC3)c([N+](=O)[O-])c2)s1	1%	i
COc1cccc(NC(=O)CC2C(=O)NCCN2C(=S)Nc2ccc(F)cc2)c1 (configuration not stated)	-17%	-1%
CCOc1ccccc1-c1nc(SCC(=O)O)n[nH]1	-10%	x
Cc1ccc(CNC(=O)c2nnc(CS(=O)(=O)c3ccccc3)o2)cc1	-4%	i
Cn1ccnc1C(O)(c1ccccc1)c1nccn1C	12%	i
C[C@@H](NC(=O)c1ncn2c1c(=O)[nH]c1cccnc12)c1ccccc1	-13%	-24%

Overlap with the part before: 2 compounds; new compounds follow.
canonical_smiles	Vaccinia Venus	VACV mCherry inh
Cn1ccnc1C(O)(c1ccccc1)c1nccn1C	12%	i
C[C@@H](NC(=O)c1ncn2c1c(=O)[nH]c1cccnc12)c1ccccc1	-13%	-24%
CCN1CCN(S(=O)(=O)c2ccc(C(=O)Nc3ccccc3)cc2)CC1	-19%	i
CC(C)CCOCC(=O)Oc1ccccc1C(=O)O	-2%	x
O=c1cc(O)c(-c2cccc(Cl)c2)c(Cl)[nH]1	12%	-3%
C/C(=N\Nc1ccc(C#N)cc1[N+](=O)[O-])c1ccc(C)o1	-3%	i
Cn1c(=NC(=O)CSCC(=O)N2CCOCC2)sc2ccccc21	-24%	x
CNC(=S)Nc1cc(C(F)(F)F)ccc1Cl	-13%	-21%
COC(=O)c1c(C#N)c(N)nc2c1CCCC2	1%	-11%
CCOc1ccc(Nc2nnc(Cc3ccc(OC)cc3)c(=O)[nH]2)cc1	14%	7%
O=C(CC(CC(=O)c1ccccc1)c1ccccn1)c1ccccc1	-9%	-4%
COc1ccc(C(=O)c2cc3c(cc2[N+](=O)[O-])OCCO3)cc1	-21%	i
Cc1cc(C)c(NC(=O)CSc2nc(C)cc(C)c2C#N)c(C)c1	-8%	-5%
COc1cc(OC)c(OC)cc1CN1CCCC(c2nc(C)ncc2-c2ccc(F)cc2)C1 (configuration not stated)	-14%	-1%
O=C(N/N=C/c1cccs1)c1ccc2ncccc2c1	3%	-3%
COc1ccc(C(=O)NC(C)c2nnc(SCC(=O)Nc3nc(C)cs3)n2C)cc1 (configuration not stated)	-1%	-11%
Fc1ccc(N/N=C(/c2ccccc2)c2ccccn2)cc1	-7%	-16%
c1ccc2sc(NC3=NCN(CCN4CCOCC4)CN3)nc2c1	-13%	-12%
Cc1ccc(CNS(=O)(=O)c2ccc(-n3cnnn3)c(C)c2)cc1	-7%	-25%
COc1ccc(CCNS(=O)(=O)c2cccs2)cc1	-20%	-30%
Cc1ccc(S(=O)(=O)CCC(=O)NCc2ccccc2)cc1	-8%	-15%
O=C(CC1C(=O)NCCN1C(=O)c1ccc(F)cc1)OCc1ccccc1 (configuration not stated)	-6%	x

(next part)
canonical_smiles	Vaccinia Venus	VACV mCherry inh
CCOc1ccccc1NC(=O)COC(=O)c1cccc(-c2ccc(OC(C)=O)cc2)c1	-11%	5%
O=C(c1ccccc1)c1ccc(C(=O)N2CCN(c3ccccc3O)CC2)cc1	-7%	-14%
CC1CC(C)(C)CC2(C1)NC(=O)N(CC(=O)N(C)Cc1nc3ccccc3c(=O)[nH]1)C2=O (configuration not stated)	-22%	u
CC1CN(C(=S)SCCN2Cc3ccccc3C2=O)CC(C)O1 (configuration not stated)	-15%	i
COc1ccc(O)c(C2=Nc3ccccc3N=C(c3ccco3)C2)c1	-1%	x
C(=N\Nc1nc(-c2ccccc2)cs1)/c1cccs1	-13%	-14%
CCn1c(C)c(C)c2cc(C(=O)Nc3cccc(Cl)c3)ccc21	-28%	u
COc1ccc(Cc2noc(CN3CCNC(=O)CC3)n2)cc1OC	0%	-15%
CC(=C1C(=O)c2ccccc2C1=O)N1CCN(c2ccccn2)CC1	11%	x
CC(C)(C)C1CCc2c(sc(NC(=O)Cn3nnc(-c4ccccc4F)n3)c2C#N)C1 (configuration not stated)	0%	-15%
O=C(O)c1cccc2sc3cc(Cl)ccc3c(=O)c12	-12%	i
COC(=O)Cc1ccc(NC(=S)NC(C)(C)C)cc1	-1%	-7%
Cc1nn(-c2cccc(Cl)c2)c(Cl)c1/C=N/NC(=O)c1cccnc1	u	i
CCCCSc1ncc(C(=O)OCC)c(N)n1	-15%	i
O=C1CC(c2cccc(Cl)c2)CC(O)=C1C=NCCCO (configuration not stated)	-14%	u
O=C(NCc1cccnc1)c1cccc(S(=O)(=O)Nc2cccc(Cl)c2)c1	-11%	-1%
Cc1cc2c(=O)n(C)c(SCC(=O)Nc3cccc(F)c3)nc2s1	-14%	i
Cc1ccc(-c2[nH]c(-c3ccccc3)nc2SCC(=O)NCC2CCCO2)cc1 (configuration not stated)	-14%&-12%	-17%
Cc1ccc(NC(=O)CN2CCSc3ccc(S(=O)(=O)N4CCCC4)cc32)cc1	5%	-13%
O=C(NNC(=O)c1cccs1)c1ccc([N+](=O)[O-])cc1	-15%	-23%

Continued.
canonical_smiles	Vaccinia Venus	VACV mCherry inh
Cn1c(SCC(=O)NCC2COc3ccccc3O2)nnc1C(F)(F)F (configuration not stated)	-14%	i
CCCOc1ccc(F)cc1-c1cc(C(=O)NC2CCCCC2)[nH]n1	-19%	-27%
CN(C)CCNc1ncnc2sc(-c3ccccc3)cc12	-18%	-26%
O=C(O)/C=C1\CCCc2ccccc2C1O (configuration not stated)	-10%&-6%	-12%
Cc1ccc(NC(=O)CN2C(=O)c3ccccc3C2=O)nc1	2%	0%
COc1cccc(NC(=O)c2nnn(Cc3ccc(OC)c(Br)c3)c2N)c1	-13%	-18%
CN1c2ccccc2-c2nc3ccccc3n2C1c1ccco1 (configuration not stated)	-13%	-13%
O=C(O)C1CC=CCC1C(=O)NNc1ccccc1 (configuration not stated)	-4%	-7%
CC(=O)O[C@H]1[C@H](C)OC=C[C@@H]1OC(C)=O	-8%	-12%
Cc1cc(C#Cc2c(-c3ccccc3)n(C)c3ccccc23)ccc1F	7%	-3%
CCc1ccc(N2C(=O)c3sc4nnc(-c5ccccc5)c(=O)n4c3C2=O)cc1	-16%	x
COc1ccc2c(CNCc3cccs3)c(C(=O)O)n(Cc3ccc(F)cc3)c2c1	-16%	-20%
COc1cccc(CNC(=O)C2CCCN2S(=O)(=O)c2ccc3c(c2)C(C)(C)C(=O)N3C)c1 (configuration not stated)	-8%	i
CCC(CC)=C(C#N)C(=O)NC1CCCCC1	-1%	i
O=c1oc2ccc3ccccc3c2cc1-c1nc2c(s1)CCc1ccccc1-2	-9%	28%
COc1cc(C=C(c2nc3ccccc3s2)c2nc3ccccc3s2)cc(OC)c1O	116%[activator]	32%[activator]
C(=N\C(/N=C/c1ccco1)c1ccco1)/c1ccco1	-9%	-16%
COc1ncc(-c2ccc(N3C(c4ccsc4)=Cc4ccc(F)cc4C3CC(C)=O)cc2)cn1 (configuration not stated)	-4%	i
Cc1cc(NC(=O)CN2C(=O)CC(c3ccco3)Sc3ccccc32)no1 (configuration not stated)	-5%	i
O=C(O)c1cccnc1C(=O)O	2%&-2%	7%&-10%

Random excerpt: 2 records from the list, in no set order.
canonical_smiles	Vaccinia Venus	VACV mCherry inh
COc1ncc(-c2ccc(N3C(c4ccsc4)=Cc4ccc(F)cc4C3CC(C)=O)cc2)cn1 (configuration not stated)	-4%	i
CN(C)CCNc1ncnc2sc(-c3ccccc3)cc12	-18%	-26%

Next section.
canonical_smiles	Vaccinia Venus	VACV mCherry inh
O=c1[nH]c2cc3c(cc2cc1CN(CCO)S(=O)(=O)c1ccccc1Cl)OCCO3	-5%	-15%
CC1CCN(S(=O)(=O)c2ccc(S(=O)(=O)NCC(=O)C(C)(C)C)cc2)CC1	-16%	-14%
CCCn1c(=O)[nH]c(=O)c2c1nc(-c1cccs1)n2CCOC	0%	-16%
Cc1ccc(C(=O)Nc2ccc(NC(=O)c3cccs3)cc2)c(C)c1	u	u
N=C(N=C(N)N)N1CCc2ccccc21	-1%	-10%
CCOc1ccccc1C(=O)N(Cc1cccs1)c1ccc(Cl)cc1	-7%	-7%
Cc1ccccc1NC(=S)N1CCC(C(=O)c2ccc(F)cc2)CC1	-9%	-3%
CC(C)Oc1cccc(C(=O)NC2=NCCS2)c1	-7%	i
CCN(CC(=O)Nc1cc(Cl)ccc1C)CC(=O)NC1CC1	2%	-12%
